Assay outcomes from PubChem.
fixLJ activator: increases Burkholderia fixLJ two-component signaling. B. multivorans fixK-promoter GFP reporter, 18 h; active compounds read high. AID 1918990. z-score (test concentration not listed). 0.3% of 29,000 active;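 active means replicate mean overnight rise in green fluorescent reporter signal, 3 or more SD over negative controls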;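 further: score is relative to vehicle wells of the plate; 300 nL library stock went into each well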
An asterisk follows results filed as active; & = joins results of further samples. An excerpt; the hit share may differ from the screen's.

entry | SMILES | fixLJ activator
1 | CNC(=O)C1CCCN(C(=O)c2ccc(-c3ccc(O)c(C)c3C)cc2)C1 (stereo not drawn) | -2.9
2 | CCCCCCCCCc1ccc(OCCOCCOCCOCCOCCOCCOCCOCCOCCO)cc1 | -2.6
3 | CCc1ccccc1NC(=O)Cn1c(=O)n(CC(=O)NCCc2ccccc2)c(=O)c2ccccc21 | 0.08
4 | N#Cc1cccc(NC(=O)c2ccc3c(c2)N(Cc2cccc(Cl)c2)C(=O)c2ccccc2S3(=O)=O)c1 | -0.81
5 | COC(=O)c1cc2c(cc1NC(=O)c1cnn(-c3ccccc3)c1-n1cccc1)OCO2 | -1.6
6 | CS(=O)(=O)c1ccc(CN2CC3CCC(C2)C3NC(=O)c2ccncc2F)cc1 (stereo not drawn) | -0.6
7 | CCc1cccc(CC)c1NS(=O)(=O)c1ccc2c(c1)CCN2C(=O)C1CC1 | -1
8 | Fc1ccccc1N1CCN(Cc2nnc(-c3ccc4c(c3)OCO4)o2)CC1 | 0
9 | CC(=O)N1CCc2c(sc3c2c(=O)n(CCc2ccccc2)c(=O)n3Cc2cccc(C)c2)C1 | -0.28
10 | COCCN1CCC(CN(C)S(=O)(=O)c2c(C)cc(C)c3nonc23)CC1 | -1.6
11 | CCOc1ccc(N(Cc2ccccc2)C(=O)c2nc(SC)ncc2Cl)cc1 | -0.72
12 | CCn1c(CCNC(=O)C2CC(=O)N(C(C)C)C2)nc2ccccc21 (stereo not drawn) | -1.9
13 | COc1cccc(Cn2cc(C(=O)c3ccc(Cl)cc3)c(=O)c3ccccc32)c1 | 0.05
14 | O=C(CN1CCCCCC1)N1CCCC(Nc2ccc3c(c2)OCCO3)C1 (stereo not drawn) | -0.67
15 | Cc1c(NC(=O)c2cc([N+](=O)[O-])ccc2N2CCOCC2)cccc1-c1nc2ccccc2o1 | -0.85
16 | CCOc1ccccc1CN(C(=O)NC1CC(=O)N(C(C)C)C1)C1CC1 (stereo not drawn) | 0.72
17 | Cc1ccccc1NC(=O)N1CCc2cc(S(=O)(=O)N3CCC(C)CC3)ccc21 | -1.7
18 | CC(CO)CCNC(=O)c1cc(COc2ccc(F)cc2F)on1 (stereo not drawn) | -0.68
19 | COCCNC(=O)Cn1c(=O)n(Cc2ccc(C(=O)NCCc3ccc(OC)c(OC)c3)cc2)c(=O)c2ccccc21 | 1
20 | CCn1c(=N)c(C(=O)NC2CCCCC2)cc2c(=O)n3cccc(C)c3nc21 | -0.79
21 | CCC(=O)N1CCc2cc(S(=O)(=O)NC(Cc3ccccc3)C(=O)NCc3cccc(OC)c3)ccc21 (stereo not drawn) | -1.6
22 | COc1ccc(OC)c(C2CC(=O)Nc3c2c(=O)n(C)c2ncnn32)c1 (stereo not drawn) | 1.9
23 | COc1ccc(C(=O)N2c3ccccc3C(C)(c3ccc(Cl)cc3)CC2(C)C)cc1 (stereo not drawn) | -0.88
24 | CCOCc1cc(CN2CCN(c3cccc(C(F)(F)F)c3)CC2)c(O)c2ncccc12 | -3.6
25 | CCCC(CCC)C(=O)O | -0.95&-2.3
26 | O=C(CSc1oc(-c2ccccc2)nc1S(=O)(=O)c1ccc(Br)cc1)NC1CCCCC1 | -1
27 | CC(=O)c1ccc(NC(=O)CC2Sc3ccccc3NC2=O)cc1 (stereo not drawn) | -2.4
28 | CCOc1ccc(C(=O)Nc2cc(-c3ccccc3)no2)cc1 | -3.3
29 | O=C(Nc1ccc(F)cc1)[C@H](Cc1ccccc1)N1Cc2ccccc2C1=O | -1.7
30 | Cn1c(SCc2ccc(F)cc2)nc2ccc(C(=O)NCc3ccccc3)cc21 | -0.35
31 | Cc1cccc(CSc2nnc(CCCCCN)o2)c1 | -1.4
32 | O=C(Nc1c(Cl)cccc1Cl)c1cccc2c1C(=O)N(C1CCCCC1)C2 | -1.5
33 | COc1cc(NC(=O)CN2C(=O)C(c3ccc(Cl)cc3)=NC23CCCCC3)cc(OC)c1 | -0.9
34 | Cc1ccc(NC(=O)CSc2nc3ccccc3nc2N2CCOCC2)cc1 | -1.4
35 | Cc1ccccc1Oc1ncccc1CNC(=O)C(C)CN(C)C (stereo not drawn) | -1.4
36 | CN(Cc1cc(-c2ccccc2)n[nH]1)C(=O)C1Cc2ccccc2CN1C (stereo not drawn) | 0.52
37 | O=c1c2nncn2ccn1-c1ccc(F)c(F)c1 | -0.42
38 | O=C(NCCn1ccnc1)c1ccc2c(c1)n(CC1CC1)c(=O)n2C1CCCCC1 | -0.44
39 | Cc1ccc(C)c(N2CCN(c3nccn4nc(-c5ccc(Br)cc5)cc34)CC2)c1 | -0.83
40 | COc1ccc(C2C(=O)c3ccccc3C2=O)cc1 | -0.44
41 | Cc1ccc(C(=O)COC(=O)c2cccc(NC(=O)c3ccc(Cl)cc3Cl)c2)cc1 | -0.92
42 | Cc1cccc(N(C)C(=O)CCS(=O)(=O)c2ccc3c(c2)n(C)c(=O)c(=O)n3C)c1 | -0.33
43 | O=C(O)CCc1ccc(-c2cccs2)n1CC(=O)Nc1ccccc1C(F)(F)F | 0.79
44 | CN(C)c1ccc(CNC(=O)C2CCN(S(=O)(=O)c3ccc4c(c3)oc(=O)n4C)CC2)cc1 | 0.1
45 | O=C(COc1ccccc1)Nc1c(Cl)ccc2nsnc12 | -0.78
46 | COc1ccc(C2Sc3ccccc3NC3=C2C(=O)c2ccccc23)c(OC)c1OC (stereo not drawn) | 2.6
47 | CCOc1ccccc1CNC(=O)c1oc2ccc3c(c2c1C)C(=O)CC(C)(C)O3 | -0.15
48 | Cc1noc(C)c1CCC(=O)N1CCC2(CC1)OCCc1sc(C(=O)O)cc12 | -1
49 | O=C(NCCc1cccc(C(F)(F)F)c1)C1CC2(CCNCC2)CN1 (stereo not drawn) | 0.27
50 | Nc1nc(CCC(=O)N2CCC3OCc4cnnn4C3C2)cs1 (stereo not drawn) | 0.56
51 | CC(=O)c1cc(-c2ccccc2)n(CC(=O)NCc2ccccc2C)c1C | -3.6
52 | COc1ccc(CNC(=O)C2CCN(Cc3nc(-c4ccc(Cl)cc4)oc3C)CC2)cc1 | -1.2
53 | COCCNC(=O)CCn1c(=O)c2cc(OC)c(OC)cc2n(CC(=O)Nc2ccccc2C)c1=O | 0.19
54 | COc1cccc(Oc2nc3c(c(=O)n(Cc4ccccc4F)c(=O)n3C)n2C)c1 | -0.79
55 | CSCCc1nc(C(C)Cn2cncn2)n(C2Cc3ccccc3C2)n1 (stereo not drawn) | -1.8
56 | Cc1ccc(CCNC(=O)c2ccc(NC(=O)N3CC(C)Sc4ccccc43)cc2)cc1 (stereo not drawn) | -0.71
57 | c1ccc(-n2cncn2)c(Cn2cc(-c3ccc(-c4ccn[nH]4)o3)nn2)c1 | -0.3
58 | Cc1ccn2c(c1)nc(=O)c1cc(S(=O)(=O)N3CCC(C)CC3)c(Cl)cc12 | -2.2
59 | O=C1CC(c2nnc(Cc3ccc(F)cc3Cl)o2)CN1c1ccccc1 (stereo not drawn) | 0.85
60 | COc1ccc(S(=O)(=O)c2c(O)c(C)cc(NC(=O)c3ccccc3)c2C(C)C)cc1 | -1.2

Records 36 to 60, reprinted for reference:
entry | SMILES | fixLJ activator
36 | CN(Cc1cc(-c2ccccc2)n[nH]1)C(=O)C1Cc2ccccc2CN1C (stereo not drawn) | 0.52
37 | O=c1c2nncn2ccn1-c1ccc(F)c(F)c1 | -0.42
38 | O=C(NCCn1ccnc1)c1ccc2c(c1)n(CC1CC1)c(=O)n2C1CCCCC1 | -0.44
39 | Cc1ccc(C)c(N2CCN(c3nccn4nc(-c5ccc(Br)cc5)cc34)CC2)c1 | -0.83
40 | COc1ccc(C2C(=O)c3ccccc3C2=O)cc1 | -0.44
41 | Cc1ccc(C(=O)COC(=O)c2cccc(NC(=O)c3ccc(Cl)cc3Cl)c2)cc1 | -0.92
42 | Cc1cccc(N(C)C(=O)CCS(=O)(=O)c2ccc3c(c2)n(C)c(=O)c(=O)n3C)c1 | -0.33
43 | O=C(O)CCc1ccc(-c2cccs2)n1CC(=O)Nc1ccccc1C(F)(F)F | 0.79
44 | CN(C)c1ccc(CNC(=O)C2CCN(S(=O)(=O)c3ccc4c(c3)oc(=O)n4C)CC2)cc1 | 0.1
45 | O=C(COc1ccccc1)Nc1c(Cl)ccc2nsnc12 | -0.78
46 | COc1ccc(C2Sc3ccccc3NC3=C2C(=O)c2ccccc23)c(OC)c1OC (stereo not drawn) | 2.6
47 | CCOc1ccccc1CNC(=O)c1oc2ccc3c(c2c1C)C(=O)CC(C)(C)O3 | -0.15
48 | Cc1noc(C)c1CCC(=O)N1CCC2(CC1)OCCc1sc(C(=O)O)cc12 | -1
49 | O=C(NCCc1cccc(C(F)(F)F)c1)C1CC2(CCNCC2)CN1 (stereo not drawn) | 0.27
50 | Nc1nc(CCC(=O)N2CCC3OCc4cnnn4C3C2)cs1 (stereo not drawn) | 0.56
51 | CC(=O)c1cc(-c2ccccc2)n(CC(=O)NCc2ccccc2C)c1C | -3.6
52 | COc1ccc(CNC(=O)C2CCN(Cc3nc(-c4ccc(Cl)cc4)oc3C)CC2)cc1 | -1.2
53 | COCCNC(=O)CCn1c(=O)c2cc(OC)c(OC)cc2n(CC(=O)Nc2ccccc2C)c1=O | 0.19
54 | COc1cccc(Oc2nc3c(c(=O)n(Cc4ccccc4F)c(=O)n3C)n2C)c1 | -0.79
55 | CSCCc1nc(C(C)Cn2cncn2)n(C2Cc3ccccc3C2)n1 (stereo not drawn) | -1.8
56 | Cc1ccc(CCNC(=O)c2ccc(NC(=O)N3CC(C)Sc4ccccc43)cc2)cc1 (stereo not drawn) | -0.71
57 | c1ccc(-n2cncn2)c(Cn2cc(-c3ccc(-c4ccn[nH]4)o3)nn2)c1 | -0.3
58 | Cc1ccn2c(c1)nc(=O)c1cc(S(=O)(=O)N3CCC(C)CC3)c(Cl)cc12 | -2.2
59 | O=C1CC(c2nnc(Cc3ccc(F)cc3Cl)o2)CN1c1ccccc1 (stereo not drawn) | 0.85
60 | COc1ccc(S(=O)(=O)c2c(O)c(C)cc(NC(=O)c3ccccc3)c2C(C)C)cc1 | -1.2

The listing continues:
entry | SMILES | fixLJ activator
61 | CCOc1ccc(-c2cc3nc(C4CCN(C(=O)OC(C)(C)C)CC4)c(C(=O)Nc4cc(OC)ccc4OC)cn3n2)cc1 | -2.3
62 | CNC(=O)C1(C)CCCN(C(=O)NCc2ccc(-c3ccccc3)cc2)C1 (stereo not drawn) | -1.5
63 | O=C(NCCO)c1ccc(-c2nnc(Nc3ccc(OC(F)(F)Cl)cc3)c3ccccc23)cc1 | -1.4
64 | Nc1nc2ccc(-c3ccc(C(=O)N4CCC(CCO)CC4)cc3)cc2s1 | -1
65 | Cc1ccccc1CCC(=O)N1CCC2(CC1)Nc1ccccc1NC2=O | -3.8
66 | COc1cc(OC)c(NC(=O)c2nnn(Cc3ccc(C)cc3)c2N)cc1Cl | -1.1
67 | CCOCN(C(=O)CSc1nc2ccccc2[nH]1)c1c(C)cccc1CC | -0.55
68 | COC(=O)c1sc(-c2ccccc2)cc1NC(=O)Nc1ccc(F)cc1 | -0.58
69 | CCOC(=O)CSc1nc2sc3c(c2c(=O)n1Cc1ccccc1)CC(C(C)C)OC3 (stereo not drawn) | -1.5
70 | CCOc1cccc2sc(=NC(=O)c3ccc(S(=O)(=O)N4CCOCC4)cc3)n(C)c12 | -0.69
71 | CCOc1ccc(NC(=O)Cn2cc(C(=O)c3ccc(C)c(C)c3)c(=O)c3cc4c(cc32)OCCO4)cc1 | -1.7
72 | CCn1nc(CNC(=O)CCc2c(C)nc(=O)[nH]c2C)c2ccccc21 | -0.2
73 | CCNC(=O)c1nn(-c2ccccc2C)nc1CO | 1.2
74 | CC(C)Cn1c(-c2cccc(Br)c2)nc2ccccc21 | -2.2
75 | CC1CCCN(c2nc3c(-c4ccc(Cl)cc4)nnn3c3ccccc23)C1 (stereo not drawn) | -0.84
76 | Cc1ccc(S(=O)(=O)c2nc(-c3cccc(C)c3)oc2N2CCN(c3ccccc3)CC2)cc1 | 1.4
77 | Cc1ccc(-c2noc(CCCC(=O)NCc3ccco3)n2)cc1 | -1.8
78 | CCc1nc(CN(C)Cc2ccc(C(=O)Nc3nncs3)cc2)no1 | -1.9
79 | CC(C(=O)Nc1cccc(-n2cccn2)c1)N1CCCCCC1 (stereo not drawn) | -1
80 | Cc1cc(C)cc(-n2c(-c3ccccc3)c(C)n3c4c(=O)n(C)c(=O)n(C)c4nc23)c1 | -1.4
81 | CCc1cc(N2CCC(n3cc(C(=O)NCC(C)C)nn3)CC2)ncn1 | -0.36
82 | Cc1ccc2oc(C(=O)N3CCN(C)C4CS(=O)(=O)CC43)c(C)c2c1 (stereo not drawn) | 0.27
83 | Cc1ccc(C)c(N2CCN(C(=O)c3cc4cc5ccc(C)cc5nc4s3)CC2)c1 | -1.5
84 | O=C(Nc1cccc(Cl)c1)c1c(NC(=O)C(F)(F)F)sc2c1CCCC2 | -5.6
85 | Cc1nccn1CC1CCCN(Cc2cn[nH]c2C(=O)O)C1 (stereo not drawn) | -0.38
86 | Nc1cc(=O)nc(SCC(=O)Nc2ccc(F)cc2)n1CCc1ccccc1 | -0.51
87 | Cc1nc2ccc(S(=O)(=O)NC(C(=O)N3CCN(c4cccc(Cl)c4)CC3)C(C)C)cc2s1 (stereo not drawn) | -0.44
88 | Cn1c(=O)c2c(nc(SCC(=O)Nc3ccccc3F)n2Cc2ccccc2F)n(C)c1=O | -1.2
89 | COc1ccc(OC)c(C2C(C(=O)N3CCCCC3)=C(C)Nc3nc4ccccc4n32)c1 (stereo not drawn) | -0.87
90 | CCCOCCN1CCN(C(=O)c2cnc3c(O)cccn3c2=O)CC1 | 0.03
91 | Cc1cc(C)n(-c2nc3ccccc3nc2Nc2cccc(C)c2C)n1 | 1.5
92 | CN1CCN(C(=O)c2ccc3c(c2)N(Cc2ccc(F)cc2)C(=O)c2ccccc2S3=O)CC1 (stereo not drawn) | -0.27
93 | CN1C(=O)CCC1Cn1ccnc1-c1cccc(CN2CCOCC2)c1 (stereo not drawn) | -1.4
94 | O=C(CCN1CCCC1=O)NC1CCOCC1OCc1cscn1 (stereo not drawn) | -2.5
95 | CCN(CCn1cccn1)C(=O)c1cnc2c(c1)nc(N)n2CC | -1.6
96 | Cc1ccc(C(=O)N2CCC[C@]3(C2)CN(c2nccc(C)n2)CCC3O)cc1 (stereo partly drawn) | -1.3
